Compound activity deposited in PubChem by several laboratories.
M1AAP inhibition: P. falciparum M1AAP inhibitors, biochemical, fluorogenic H-Leu-NHMec substrate, 1536-well (AID 1445); Aminopeptidase N (Plasmodium falciparum (isolate 3D7)); hit rate 0.42% among 220,000; recombinant M1AAP, H-Leu-NHMec fluorogenic kinetic assay; higher % means a stronger effect; one-dose inhibition, % at 30 µM; IC50 in µM for titrated hits;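 active = primary inhibition above the hit cutoff, then over 50% inhibition at one or more dose response concentrations, cut at about 23% in these data, passing the limit was not always enough; inconclusive = conflicting primary data, or primary hits not chosen for dose response; inactive = low primary inhibition, or under 50% at every dose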;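 also: plate controls were DMSO full reaction for no effect and no enzyme background for full effect; strong numbers were not always called active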
GPR55 activation: GPR55 agonists via beta-arrestin recruitment, primary screen, imaging, U2OS cells, beta-arrestin-GFP redistribution (AID 1961); activation, % at 10 µM, or EC50 in µM where a hit was titrated; U2OS GPR55 beta-arrestin-GFP redistribution imaging; higher % means a stronger effect; hit rate 0.048% among 290,000; G-protein coupled receptor 55 (Homo sapiens);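 active = activation above 40% with more than 50 cells counted in the well; inconclusive = wells holding fewer than 50 cells, flagged as toxic or sparse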;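 also: U2OS osteosarcoma cells stably expressing GPR55 and beta-arrestin-GFP; plate controls were DMSO negative control for no effect and LPI positive control for full effect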
KOR beta-arrestin: KOR agonists, beta-arrestin recruitment, primary screen, cell-based, luminescence, uHTS (AID 1777); Kappa-type opioid receptor (Homo sapiens); activation, % at 10 µM; hits with a dose series show EC50 in µM; hit rate 0.02% among 280,000; KOR beta-arrestin recruitment, luminescence; higher % means a stronger effect; in the data active = activation above about 50%, passing the limit was not always enough; also: a part of the inactive calls stands beside numbers as strong as those of hits
M17LAP inhibition: P. falciparum M17LAP inhibitors, primary screen, biochemical, fluorogenic H-Leu-NHMec substrate, 1536-well (AID 1619); Leucine aminopeptidase (Plasmodium falciparum (isolate 3D7)); recombinant M17LAP, H-Leu-NHMec fluorogenic kinetic assay; higher % means a stronger effect; one-dose inhibition, % at 30 µM; IC50 in µM for titrated hits; hit rate 0.38% among 220,000;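 active = compound inhibiting the enzyme by more than half at any dose during confirmatory dose-response retesting; inconclusive = strong single-dose inhibitors picked by rank but not retested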;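 also: plate controls were full reaction with DMSO carrier for no effect and no enzyme background for full effect; strong numbers were not always called active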
AID2073: inhibitors of Mint1-CaV2.2 protein interaction, biochemical, HTRF (AID 2073) | Voltage-dependent N-type calcium channel subunit alpha-1B (Homo sapiens) | HTRF protein-protein interaction, Mint1-CaV2.2; higher % means a stronger effect | inhibition, % at 20 µM, or IC50 in µM where a hit was titrated | hit rate 0.19% among 290,000; in the data active = inhibition mostly above about 51%, no sharp cut-off; inconclusive = no clear call, values can overlap the other calls; inactive = mostly below about 53%; also: some results filed as inactive read as strong as hits
* marks the source's active call; other numbers are inactive results; ? = inconclusive; / = no result given. Only part of the results is shown; the hit share may differ from the screen's.

SMILES	M1AAP inhibition	GPR55 activation	KOR beta-arrestin	M17LAP inhibition	AID2073
CCC(C)(C)c1ccc(OCCCC[n+]2cccc(C)c2)c(C(C)(C)CC)c1	9.1%	-0.3%	1.7%	8.8%	7.7%
CC(/C=N/NC(=O)c1n[nH]c2c1CCC2)=C\c1ccccc1	15.0%	0.2%	1.7%	7.5%	-2.5%
CCC(=O)N1c2ccc(S(=O)(=O)N3CCN(c4ccc([N+](=O)[O-])cc4)CC3)cc2CC1C (centres undefined)	/	-0.2%	-9.3%	/	2.8%
CCn1nc([N+](=O)[O-])c(C(C#N)c2nc3cc(C(F)(F)F)ccc3s2)c(Cl)c1=O (centres undefined)	?	-0.1%	/	5.0%	-4.8%
COc1cccc(-n2c(O)c(C=NCc3ccc4c(c3)OCO4)c(=O)[nH]c2=O)c1	1.3%	-0.1%	4.9%	-0.1%	-8.5%
COc1ccc(NC(=O)Nc2nnc(-c3ccncc3)s2)cc1	1.1%	0.3%	-8.8%	15.7%	3.4%
O=C1NC(=O)N(CCc2ccc(F)cc2)C(=O)/C1=C\C=C\c1ccccc1	10.9%	-0.6%	4.6%	-1.1%	48.6%
CCOC(=O)c1c(C)n(Cc2ccco2)c2ccc(O)cc12	1.1%	-0.1%	5.8%	-15.9%	24.5%
Nc1ccccc1C(=O)OCC(=O)Nc1ccc(Br)cc1F	-3.0%	-0.1%	-0.9%	-11.7%	2.6%
CN(C)S(=O)(=O)c1cc(NC(=O)CSc2nn(-c3ccc(Cl)cc3)c(=S)s2)ccc1Cl	9.4%	-0.3%	11.3%	9.7%	?
NC(=O)c1ccc(N2CCN(S(=O)(=O)c3ccccc3)CC2)c([N+](=O)[O-])c1	4.9%	-0.1%	8.2%	-0.4%	-8.6%
CCC(C)C(NC(=O)CCCNC(=O)CCC(=O)OC1O[C@H]2OC3(C)CC[C@H]4[C@H](C)CCC(C1C)C24OO3)C(=O)O (some centres undefined)	/	-0.2%	6.2%	/	11.4%
C=CCN(c1ccccc1OC)S(=O)(=O)c1ccc(Cl)c(C(=O)Nc2ccc(N3CCOCC3)cc2)c1	-2.0%	-0.4%	-2.7%	-14.8%	16.3%
Cn1c(/C=C/c2ccc(Br)cc2)c([N+](=O)[O-])c(=O)n(C)c1=O	/	0.0%	-3.6%	/	-1.9%
CCOc1ccc(NC(=O)c2ccc(CN3CCc4ccccc4C3)cc2)cc1	/	0.7%	2.7%	/	11.8%
CCCCCn1c(=O)[nH]c2cc(C(=O)N3CCN(Cc4ccc5c(c4)OCO5)CC3)ccc2c1=O	-12.7%	-0.1%	2.0%	-14.9%	-5.4%
NC(=O)C1CCN(c2ccc(S(=O)(=O)N3CCC(Cc4ccccc4)CC3)cn2)CC1	-5.6%	1.3%	12.4%	2.1%	20.8%
O=C1NC(=O)N(Cc2ccc(F)cc2)C(=O)/C1=C\C=C\c1ccco1	17.1%	-0.1%	-0.9%	13.4%	1.1%

Some values from the list.
CCC(C)(C)c1ccc(OCCCC[n+]2cccc(C)c2)c(C(C)(C)CC)c1 in GPR55 activation reads -0.3%
O=C1NC(=O)N(CCc2ccc(F)cc2)C(=O)/C1=C\C=C\c1ccccc1 in AID2073 reads 48.6%

In the list so far, these contain four or more nitrogen atoms.
SMILES	M1AAP inhibition	GPR55 activation	KOR beta-arrestin	M17LAP inhibition	AID2073
CC(/C=N/NC(=O)c1n[nH]c2c1CCC2)=C\c1ccccc1	15.0%	0.2%	1.7%	7.5%	-2.5%
CCC(=O)N1c2ccc(S(=O)(=O)N3CCN(c4ccc([N+](=O)[O-])cc4)CC3)cc2CC1C (centres undefined)	/	-0.2%	-9.3%	/	2.8%
CCn1nc([N+](=O)[O-])c(C(C#N)c2nc3cc(C(F)(F)F)ccc3s2)c(Cl)c1=O (centres undefined)	?	-0.1%	/	5.0%	-4.8%
COc1ccc(NC(=O)Nc2nnc(-c3ccncc3)s2)cc1	1.1%	0.3%	-8.8%	15.7%	3.4%
CN(C)S(=O)(=O)c1cc(NC(=O)CSc2nn(-c3ccc(Cl)cc3)c(=S)s2)ccc1Cl	9.4%	-0.3%	11.3%	9.7%	?
NC(=O)c1ccc(N2CCN(S(=O)(=O)c3ccccc3)CC2)c([N+](=O)[O-])c1	4.9%	-0.1%	8.2%	-0.4%	-8.6%
CCCCCn1c(=O)[nH]c2cc(C(=O)N3CCN(Cc4ccc5c(c4)OCO5)CC3)ccc2c1=O	-12.7%	-0.1%	2.0%	-14.9%	-5.4%
NC(=O)C1CCN(c2ccc(S(=O)(=O)N3CCC(Cc4ccccc4)CC3)cn2)CC1	-5.6%	1.3%	12.4%	2.1%	20.8%

Compound profiles (already shown). Order of screens: M1AAP inhibition | GPR55 activation | KOR beta-arrestin | M17LAP inhibition | AID2073
Shown for `O=C1NC(=O)N(CCc2ccc(F)cc2)C(=O)/C1=C\C=C\c1ccccc1` → 10.9% | -0.6% | 4.6% | -1.1% | 48.6%
Shown for `CC(/C=N/NC(=O)c1n[nH]c2c1CCC2)=C\c1ccccc1` → 15.0% | 0.2% | 1.7% | 7.5% | -2.5%
